Rce1 inh – yeast Ras-converting enzyme inhibition; calls only; 0.27% of 290,000 active; yeast membranes, quenched prenylated peptide cleavage fluorescence; AID 2563;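 active means fall in fluorescence gain of 50% or more versus controls, with final raw signal at or below 3038400; inconclusive means same 50% fall but final raw signal above 3038400; inactive means fall in fluorescence gain under 50%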;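 further: plate controls were neutral control wells for no effect and wells lacking membranes for full effect; tested at 10 µM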
Target sequence (Q03530 whole entry, looked up): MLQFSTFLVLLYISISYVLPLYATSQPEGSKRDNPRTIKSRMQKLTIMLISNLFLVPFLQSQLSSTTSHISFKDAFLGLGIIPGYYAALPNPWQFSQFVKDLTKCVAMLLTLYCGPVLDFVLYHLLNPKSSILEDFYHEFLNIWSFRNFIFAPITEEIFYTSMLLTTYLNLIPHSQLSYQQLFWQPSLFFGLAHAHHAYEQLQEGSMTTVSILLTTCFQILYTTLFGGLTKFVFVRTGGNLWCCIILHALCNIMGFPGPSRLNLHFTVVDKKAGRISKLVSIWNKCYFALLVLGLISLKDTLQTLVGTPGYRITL
Yeast UUG start – alters start codon recognition fidelity in yeast | S. cerevisiae UUG-firefly luciferase reporter, luminescence/redox ratio | activity score, % at 18.7 µM | 0.13% of 350,000 active | AID 602363;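 active means replicate mean at a twofold rise or more, about +100% in these data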;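 further: firefly luciferase made from a UUG start codon reports start codon fidelity; reporter light over untreated wells divided by growth signal over untreated wells; some hits fall short of that in this replicate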
eIF4H inh – inhibitors of RNA binding by human eIF4H; Q15056; eIF4H fluorescence polarization binding assay; inhibition, % at 35 µM; 0.94% of 290,000 active; AID 2012;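 active means 50% or more with normal probe brightness, or confirmed in later tests; inconclusive means above 50% with abnormal brightness, or retests that disagree; inactive means below 50% or failed in later tests; about a fifth of its hits are not listed in these tables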;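 further: calls also rest on retests at 20 µM and on dose response follow-up; 0% = protein and probe with vehicle and 100% = probe without protein; strong numbers were not always called active; many hits fall short of the cut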
MT1-MMP act inh – blocks activation of human MT1-MMP. P50281. HT1080 RFP-PRO-GFP cells, GFP/RFP ratio fluorescence, overnight; percent of plate control window, DMSO zero. GFP/RFP ratio change, % at 20 µM. 0.061% of 360,000 active. AID 651647;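 active means GFP/RFP ratio change of at least 30% with cell ATP level not reduced by more than half and red fluorescence within 50% of control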; further: strong numbers were not always called active
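Assay system: HT1080 RFP-PRO-GFP cells. Benchmarks: DMSO vehicle wells and RFP-L50D-GFP reporter cell wells. Times: overnight cell settling, then overnight compound exposure, 37 °C, 5% CO2. Compound: 20 µM single dose, 1% DMSO. Read-out basis: GFP/RFP fluorescence ratio.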
CSC inhib – blocks cancer stem cells. 1.1% of 300,000 active. inhibition, % at 7.5 µM. cancer stem cell-like cells viability, luminescence. AID 2717;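 active means mean at 75% or more and at least half the replicates too; inconclusive means mean and replicates disagree; tested in HMLE shEcad cells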;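 further: 0% = median of negative and 100% = median of positive control wells; the first replicate is given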
HIV Env fusion – HIV envelope-mediated fusion inhibition | 1.1% of 360,000 active | inhibition, % at 12.3 µM | HeLa-JRFL Env/CEM21 cell fusion, luciferase | AID 651610;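 active means mean replicate inhibition score of at least 50 and every replicate individually at or above 50; inconclusive means only one of the two criteria met; inactive means mean below 50 and not all replicates reaching 50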;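 further: 0% = plate neutral controls and 100% = maraviroc near 300 nM; one replicate is shown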
PABP FP inh – PABP-poly(A) binding inhibition; P11940; PABP-poly(A) RNA binding, fluorescence polarization; inhibition, % at 35 µM; 1% of 290,000 active;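 active means 50% or more with normal probe brightness, or confirmed in later tests; inconclusive means above 50% with abnormal brightness, or retests that disagree; inactive means below 50% or failed in later tests; about a fifth of its hits are not listed in these tables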;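 further: calls also rest on retests at 20 µM and on dose response follow-up; controls were probe without protein and protein plus probe with vehicle; some compounds called inactive have numbers as strong as hits; many hits fall short of the cut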
eIF4H inh retest – second read-out of eIF4H inh, no call of its own (marks repeat the call); inhibition, %; compound at 20 µM; confirmation average;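 mean of two retest wells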
PABP FP inh retest – further read-out of PABP FP inh, marked with its call; inhibition, %; compound at 20 µM; confirmation repeats;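 mean of two retest wells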
MT1-MMP act inh RFP – second read-out of MT1-MMP act inh, no call of its own (marks repeat the call); RFP signal change, %; measured here: RFP expression control read;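 0 = vehicle wells; hits needed this value within 50% of zero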
* = called active by the depositor; i = inactive; u = inconclusive; x = no result given. These rows are one share of the data; rates above refer to the full screens.

SMILES	Rce1 inh	Yeast UUG start	eIF4H inh	MT1-MMP act inh	MT1-MMP act inh RFP	CSC inhib	HIV Env fusion	PABP FP inh	others
O=C1/C(=C/c2ccccc2)SC(=S)N1CCCC(=O)N1CCCCC1CCO (configuration not stated)	i	x	1.4	1.2	-0.4	14.9	-8.6	1.2
CC[C@@]12C(=O)N(c3cccc(F)c3)C(=O)N1[C@H](c1ccc(Cl)cc1)[C@@H]1C(=O)N(C3CCCCC3)C(=O)[C@@H]12	i	1.2	x	0.1	0.2	4.1	95.2*	x
Cc1cccc(-n2ncc3c2CCCC3NC(=O)CCN2CCCO2)c1C (configuration not stated)	i	-19.0	-7.9	0.0	-20.5	-3.1	1.7	-15.6
CCn1nc(C)c(/C=N/NC(=O)c2nc3nc(C)cc(C)n3n2)c1C	i	0.5	-6.2	1.0	1.3	-3.6	2.6	-12.4
CC(=O)/C(=C/Nc1ccc(Oc2ccccc2)cc1)c1ccccc1	i	x	-7.7	-2.7	-2.7	14.2	x	20.2
COc1ccc(/C=N/NC(=O)CNS(=O)(=O)c2ccccc2)cc1	x	-0.6	x	11.1	4.4	-0.9	-12.4	x
CN(C)C=Nc1c(Br)cc(Br)c2nonc12	i	-11.8	u	-150.5	10.7	-8.4	x	u
CCCn1c(-c2cc(OC)c(OC)c(OC)c2)nc2c1c(=O)[nH]c(=O)n2Cc1ccccc1	i	x	2.0	0.3	-3.1	x	17.1	12.0
O=C(Nc1cc(C(F)(F)F)cc(C(F)(F)F)c1)c1ccc(Cn2cc(C(F)(F)F)ccc2=O)cc1	i	-4.6	-1.8	2.9	-3.7	-9.4	-112.4	3.0
O=C(Nc1ccccc1-c1ccccc1)C1CCC1	i	x	-10.1	0.1	2.5	15.8	14.1	-10.1
O=C(NCCSCc1c(F)cccc1Cl)c1ccc(CN2CCOCC2)cc1	i	-5.5	3.0	1.1	-6.7	8.2	x	0.8
O=C(CSc1nc2ccccc2n1S(=O)(=O)c1cccc([N+](=O)[O-])c1)NCc1cccs1	i	-10.9	-2.2	-4.0	-1.4	-2.2	-103.0	4.2
CCOC(=O)c1[nH]c2ccc(OC)cc2c1NC(=S)N1CCN(c2cccc(C)c2C)CC1	i	-16.6	9.2	-6.7	-11.0	x	17.6	-9.7
N=C1C(=O)NC(=O)C1c1ccccc1 (configuration not stated)	x	5.2	x	5.0	-0.1	x	-17.7	x
CC(C)(C)NC(=O)C(c1ccccn1)N(C(=O)c1ccc2c(c1)OCCO2)C1CCCC1 (configuration not stated)	i	-2.9	4.7	-5.6	-2.3	-4.5	x	-3.3
CCC(=O)N1CCc2cc(S(=O)(=O)NCCC(=O)N3CCN(c4ccccn4)CC3)ccc21	x	-5.2	-11.3	-1.9	-2.4	x	-112.2	9.4
Cc1ccc(SCC(=O)Nc2ccc(-c3nc4ccccc4[nH]3)cc2)cc1	i	x	4.7	0.5	5.0	3.6	x	-4.6
CCOc1ccc(-n2ccnc2)nn1	i	3.3	-0.8	4.3	3.3	-7.5	7.3	-2.0
O=S(=O)(c1ccc(S(=O)(=O)N2CCCC2)cc1)N1CCCCC1	i	x	-4.7	x	x	-9.2	x	-2.7
O=C1NC(=S)S/C1=C\c1ccc(SCc2ccco2)o1	x	-19.3	95.2	52.9	73.9	14.1	x	1.4	eIF4H inh retest=-6.3;PABP FP inh retest=8.6
COC(CNC(=O)CNC(=S)N(Cc1ccccc1)Cc1cccnc1)OC	i	-9.7	-9.9	2.5	3.3	-3.3	10.3	-1.5
Cc1cc(S(=O)(=O)N2CCCC2)ccc1OCC(=O)NCc1ccccc1	i	4.5	5.5	-1.1	-1.6	-3.3	0.7	-2.5
Cc1cccc(NC(=O)NC2CC(=O)N(c3ccc4c(c3)OCCO4)C2)n1 (configuration not stated)	i	-16.7	2.1	0.9	0.4	2.1	10.8	-3.9
Cc1ccc(N2C(=O)CC(SCC(=O)Nc3ccc(S(N)(=O)=O)cc3)C2=O)cc1 (configuration not stated)	i	x	1.4	6.2	4.7	1.2	-5.7	-15.8
Cc1ccc(S(=O)(=O)Nc2cccc3cccnc23)c([N+](=O)[O-])c1	i	-24.9	12.1	7.2	-9.9	-3.7	-25.8	-6.3
CCCn1c(=O)c2sccc2n2c(CCCC(=O)NCC3CCCO3)nnc12 (configuration not stated)	i	1.0	-5.3	3.9	3.7	0.4	6.5	6.3
CN(C(=O)CC1C(=O)NCCN1Cc1ccc2ccccc2c1)C1CCOCC1 (configuration not stated)	x	-7.9	1.5	-2.0	1.2	-11.1	x	-0.5
O=C(Nc1ccc2c(c1)OCO2)c1noc2c1CCCC2	i	-9.0	-12.0	1.5	2.2	5.4	-56.7	-5.3
CNC(=S)NNC(=O)c1ccc(N(C)C)cc1	i	-11.3	-15.5	-9.2	2.1	3.5	4.1	-11.5
CC(C)CN1C(=S)SC(C)(C)C1n1oc(=O)n(-c2ccccc2)c1=O (configuration not stated)	i	x	-1.7	-2.8	-4.1	6.4	-17.1	6.6

3 structures from above, sorted by formula weight, smallest number first:
SMILES	Rce1 inh	Yeast UUG start	eIF4H inh	MT1-MMP act inh	MT1-MMP act inh RFP	CSC inhib	HIV Env fusion	PABP FP inh	others
Cc1ccc(S(=O)(=O)Nc2cccc3cccnc23)c([N+](=O)[O-])c1	i	-24.9	12.1	7.2	-9.9	-3.7	-25.8	-6.3
CC(C)CN1C(=S)SC(C)(C)C1n1oc(=O)n(-c2ccccc2)c1=O (configuration not stated)	i	x	-1.7	-2.8	-4.1	6.4	-17.1	6.6
CN(C(=O)CC1C(=O)NCCN1Cc1ccc2ccccc2c1)C1CCOCC1 (configuration not stated)	x	-7.9	1.5	-2.0	1.2	-11.1	x	-0.5

Next part.
SMILES	Rce1 inh	Yeast UUG start	eIF4H inh	MT1-MMP act inh	MT1-MMP act inh RFP	CSC inhib	HIV Env fusion	PABP FP inh	others
CCOC(=O)c1cnc2c(C)cc(C)cc2c1Nc1ccc(S(=O)(=O)Nc2ncccn2)cc1	i	-18.4	6.6	0.2	0.3	-3.0	25.5	-2.5
COc1cccc(CNC(=O)CSc2nc3c(oc4ccccc43)c(=O)n2CC2CCCO2)c1 (configuration not stated)	i	-5.6	x	-3.8	-1.0	-4.1	0.5	x
O=C(/C=C/c1ccccc1)NC(NC(=S)Nc1cccc(Cl)c1)C(Cl)(Cl)Cl (configuration not stated)	i	-19.8	-11.3	-3.7	-11.5	71.7	63.3*	1.3
O=[N+]([O-])c1ccc(NC2CCN(Cc3ccccc3)CC2)c([N+](=O)[O-])c1	i	-2.6	-5.2	12.3	10.7	13.6	0.7	3.7
CC(=O)Nc1ccc(C(=O)CSc2nc3ccc(C)cc3[nH]2)cc1	i	-24.1	13.9	5.1	1.3	-4.8	x	0.7
CCOC(=O)c1cc(CC)sc1NC(=O)CSc1nc2ccccc2c(=O)n1Cc1ccco1	i	-6.4	-9.4	4.2	1.7	6.5	-7.7	-0.7
Cc1ccc(C2=NN(CCC(=O)NC3CCCC3)C(=O)CC2)cc1	i	-6.1	x	0.1	4.4	-1.4	-2.9	x
COc1ccc(NC(=O)N2CCCC(c3ccccc3)C2)cc1 (configuration not stated)	i	-0.6	1.1	0.7	-1.8	4.4	10.3	-4.0
Cc1c(C#N)c2ccccc2n1CCOc1ccccc1F	i	x	-17.0	-2.7	-9.7	14.9	x	-2.7
CCOc1cc2c(cc1/C=C/c1noc(C)c1[N+](=O)[O-])OC(C)C2 (configuration not stated)	i	-24.2	u	-60.4	3.0	8.1	-19.1	u
COc1cccc2c1O/C(=N\O)C(C(=O)Nc1ccc(C)cc1)C2 (configuration not stated)	i	-9.7	7.1	-2.6	-9.2	36.5	-91.7	5.3
CC1CCCN(C(=O)c2ccc3ncsc3c2)C1 (configuration not stated)	x	-10.7	x	7.0	-1.9	x	5.4	x
CC(=C/c1ccccc1)/C=N/NC(=O)c1cccs1	i	-16.6	0.8	-1.0	-3.2	4.0	-153.4	-7.0
O=C(O)C1C2C=CC(O2)C1C(=O)NCc1ccc2c(c1)OCO2 (configuration not stated)	i	x	-6.5	-1.1	2.0	-3.0	4.7	9.4
CCOC(=O)N1CCN(C(=O)CCCn2nnnc2CN2CCC(C)CC2)CC1	i	1.4	-2.5	3.7	8.7	4.1	6.9	11.5
COc1cc(S(=O)(=O)N2CCOCC2)cc(C(=O)c2nccn2C)c1OC	i	7.2	2.5	-1.2	4.2	-2.8	x	-4.4
CCCc1ccc(OCC(=O)NNC(=O)c2cccnc2)cc1	i	x	3.3	-2.0	0.7	-6.9	-11.6	-5.8
Cc1ccc(-c2cc(C(=O)N/N=C/c3cccnc3)n[nH]2)o1	i	x	0.6	1.5	2.6	23.5	x	-12.8
CC1CCCCC1NC(=O)CSc1nnc(CNC(=O)c2ccccc2)n1C (configuration not stated)	i	x	-7.1	1.2	2.3	-16.0	4.4	-13.3
CNS(=O)(=O)c1ccc(C)c(S(=O)(=O)NC)c1	i	x	1.4	-1.0	1.9	14.8	x	-2.2
Cc1n[nH]c(C)c1S(=O)(=O)N(C)Cc1ccco1	x	-11.1	x	1.5	2.0	-7.2	x	x
Cc1ccc(N2CCN(S(=O)(=O)N(C)C)CC2)cc1Cl	i	-7.9	-1.2	10.6	8.5	x	x	-0.1
C=CCN(CC=C)CCOc1ccc(OC(C)C)cc1	x	x	0.7	-0.7	2.8	24.0	4.5	14.1
CCOc1cccc(SCc2noc(C(=O)NCC3CCCO3)c2C(=O)O)c1 (configuration not stated)	i	-3.7	2.8	-7.3	0.3	-8.1	-11.4	11.1
Cc1c(C(=O)N2CCC(C)CC2)oc2ccc(S(=O)(=O)N3CCC4(CC3)OCCO4)cc12	i	-9.0	0.1	-2.9	-1.0	-9.4	x	5.4
CCOC(=O)N1CCN(c2cc(=O)n(-c3ccc(OCC)cc3)c(=O)[nH]2)CC1	i	x	12.9	3.4	4.5	-9.4	x	-1.0
O=C(NCCc1ccccc1)c1cc2ccccc2oc1=O	i	3.2	9.2	0.0	1.8	2.0	-1.6	14.5
Cc1ccc(CNC(=O)CCCc2c[nH]c3ccccc23)cc1	i	-7.4	-5.9	3.9	5.7	2.2	2.5	-7.0
COc1ccc2cc(C)c3nnc(SCC(=O)Nc4nc(-c5ccc(F)cc5)cs4)n3c2c1	i	x	-7.3	1.7	-1.9	16.8	7.9	-4.7
O=[N+]([O-])c1cc(C(F)(F)F)cc([N+](=O)[O-])c1NCCNC(=S)Nc1ccc(Cl)c(Cl)c1	i	-4.1	-2.6	7.0	-11.2	107.2*	56.9*	10.7
COC(=O)[C@H](c1ccccc1Cl)N1CCc2sccc2C1	i	10.0	38.2	-0.6	-1.9	-10.3	-7.9	20.0
CCCC(C)NC(=O)COC(=O)c1ccccc1SCC(=O)NC(C)CCC (configuration not stated)	i	x	-2.9	-2.3	1.0	0.7	7.4	8.0
O=C(N/N=C/c1cccc(OC(=O)c2ccc3c(c2)OCO3)c1)c1cncc(Br)c1	i	-22.5	-8.4	3.5	6.4	-8.6	x	0.6
CCN1/C(=C/C=C2/SC(=Nc3cccc4ncccc34)N(C)C2=O)Sc2ccccc21	x	-3.8	x	-53.9	8.5	x	-11.2	x
Cc1ccccc1N=C1NC(=O)/C(=C/c2cccn2-c2cccc(C(=O)O)c2)S1	i	x	97.5*	x	x	x	14.0	84.0	eIF4H inh retest=57.4*;PABP FP inh retest=31.9
COc1ccccc1C1C(C(=O)NCc2ccccc2)=C(C)Nc2ncnn21 (configuration not stated)	i	x	-7.4	6.6	-0.3	4.9	-58.2	-7.9
